Methyltransferases – Primary Screen for Target Class Profiling of Small Molecule Inhibitors of Methyltransferases; purified enzyme, MTase-Glo SAH luminescence; hits give low values; AID 1745853, 2022; calls only at 40 µM; hit rate 3.9% among 25,000; active = -50% or lower on at least one of six enzymes; inconclusive = the cases between; inactive = as a rule above -30% on all six;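 note: enzymes were COMT GAMT GNMT HNMT NNMT and PNMT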
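Each enzyme was reacted with SAM and its substrate, with compounds tested once at 40 uM; SAH formed was read by MTase-Glo luminescence.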
Calls only; i = inactive; ? = inconclusive; + = active, no number. % is set by controls: 0 for no effect and ±100 for the full control effect. The list is partial (hit frequency here may not be typical).

compound | Methyltransferases
COc1cc(O[C@@H]2O[C@H](CO)[C@@H](O)[C@H](O)[C@H]2O)c(CCC(=O)OC[C@H]2O[C@@H](Oc3cc(OC)c(C4OC(=O)C(C)(O)C4O)cc3CCC(=O)O)[C@H](O)[C@@H](O)[C@@H]2O)cc1C1OC(=O)C(C)(O)C1O (stereo partly drawn) | i
Cc1cccc(CN2CCCC(C(=O)Nc3cccc(-n4cccn4)c3)C2)n1 (stereo not drawn) | i
Cc1nc(CCNS(=O)(=O)c2c(C)nn(C)c2C)no1 | i
CCOc1ccc(CCNC(=O)CCc2nnc3n(Cc4ccccc4Cl)c(=O)c4ccccc4n23)cc1 | i
COc1c(F)ccc(C(=O)N2CCC3(CCCNC3)C2)c1F (stereo not drawn) | i
CCC1c2ccc(C)n2CCN1C(=O)Nc1cc(Cl)ccc1C (stereo not drawn) | i
CC(C)(C(=O)O)C1CCOCC1 | i
CC1(C(=O)NC2CCCCCC2)Cn2c(cc3sccc32)C(=O)N1c1ccc(Cl)cc1 (stereo not drawn) | i
CCN1c2cc(C(=O)Nc3ccccc3OC)ccc2C(=O)N2CCCCCC21 (stereo not drawn) | i
O=C(Cn1ccc2cc(S(=O)(=O)N3CCCC3)ccc21)NCc1cccc(Cl)c1 | i
O=C(CCc1nc2ccc(Cl)cc2[nH]1)N1CCc2c(nc3cc(-c4ccccc4)[nH]n3c2=O)C1 | i
CC(=O)Nc1c2n(c3ccc(F)cc13)CC(C)(C(=O)NC1CCCCC1)N(Cc1cccnc1)C2=O (stereo not drawn) | i
CCOC(=O)C1CCC(CNC(=O)N2CCn3c(C)ccc3C2CC)CC1 (stereo not drawn) | i
CCCN1C(=O)c2c(C(=O)Nc3ccccc3CC)ncn2CC1(C)C(=O)NC1CCCC1 (stereo not drawn) | i
Cc1ccccc1CSc1nnc2n(CC(C)C)c(=O)c3ccc(C(=O)NC(C)C)cc3n12 | i
Cc1ccc(CNc2ncnc3ccc(-c4ccc(CO)o4)cc23)o1 | +
COCCN1CC(c2n[nH]c(C3CCOCC3)n2)CCC1=O (stereo not drawn) | i
COc1ccc(OC2OC(CO[C@@H]3O[C@@H](C)[C@H](O)[C@@H](O)[C@H]3O)C(O)C(O)C2O)cc1OC (stereo partly drawn) | i
CCCN1C(=O)c2c(C(=O)NCCN3CCOCC3)ncn2CC1(C)C(=O)NCc1ccc(F)cc1 (stereo not drawn) | i
Cc1cccc(NC(=O)Cn2nc3n(CC(C)C)c(=O)c4ccc(C(=O)NC5CCCC5)cc4n3c2=O)c1 | i

Retrieved one by one from the list above (six):
compound | Methyltransferases
O=C(Cn1ccc2cc(S(=O)(=O)N3CCCC3)ccc21)NCc1cccc(Cl)c1 | i
Cc1cccc(CN2CCCC(C(=O)Nc3cccc(-n4cccn4)c3)C2)n1 (stereo not drawn) | i
COCCN1CC(c2n[nH]c(C3CCOCC3)n2)CCC1=O (stereo not drawn) | i
COc1cc(O[C@@H]2O[C@H](CO)[C@@H](O)[C@H](O)[C@H]2O)c(CCC(=O)OC[C@H]2O[C@@H](Oc3cc(OC)c(C4OC(=O)C(C)(O)C4O)cc3CCC(=O)O)[C@H](O)[C@@H](O)[C@@H]2O)cc1C1OC(=O)C(C)(O)C1O (stereo partly drawn) | i
COc1c(F)ccc(C(=O)N2CCC3(CCCNC3)C2)c1F (stereo not drawn) | i
CCCN1C(=O)c2c(C(=O)Nc3ccccc3CC)ncn2CC1(C)C(=O)NC1CCCC1 (stereo not drawn) | i

Additional results follow:
compound | Methyltransferases
COc1c2cc(c(O)c1OC)CCCCC(O)CCc1ccc(O)c-2c1 (stereo not drawn) | i
CCCn1c(=O)c2ccc(C(=O)NC(C)C)cc2n2c(=O)n(CC(=O)N(C)c3ccc(F)cc3)nc12 | i
COc1cccc(CN2CCC3(CC2)COc2ccccc2CN3)c1 | i
Cc1ccccc1CN1C(=O)c2cc3occc3n2CC1(C)C(=O)NC1CCCC(C)C1C (stereo not drawn) | i
CCC(C)NC(=O)c1ccc2c(=O)n(CCC(C)C)c3nn(CC(=O)c4ccccc4)c(=O)n3c2c1 (stereo not drawn) | i
Cc1cc(F)ccc1NC(=O)Cn1c(=O)oc2cc(S(=O)(=O)N3CCCC3)ccc21 | i
Cc1ccccc1CSc1nnc2n(CCCOC(C)C)c(=O)c3ccccc3n12 | i
O=c1[nH]c2ccccc2c2ccccc12 | i
Cc1noc(C)c1[S+](=O)([O-])N1CCc2nc(-c3ccccc3)nc(-c3ccc(Cl)cc3)c2C1 | i
CCN(Cc1ccncc1)C(=O)CC1C(=O)NCCN1CCc1ccccc1 (stereo not drawn) | ?
CC(=O)c1ccc(Nc2nc3c(S(=O)(=O)c4ccc(C)c(C)c4)nnn3c3ccccc23)cc1 | i
CCC(C)NC(=O)c1ccc2c(=O)n(C(C)C)c3nn(CC(=O)N(C)c4ccc(F)cc4)c(=O)n3c2c1 (stereo not drawn) | i
CCN1C(=O)c2cc3ccccc3n2CC1(C)C(=O)NCC(=O)NCc1ccc(C)cc1 (stereo not drawn) | i
COc1ccc(NC(=O)Cn2nc3n(CC(C)C)c(=O)c4ccccc4n3c2=O)cc1 | i
COc1ccc(CCN2C(=O)c3cc4sccc4n3CC2(C)C(=O)NC2CCCCC2)c(OC)c1 (stereo not drawn) | i
Cn1nc(-c2cccc(F)c2)c(N2CCCC2)c1NC(=O)NCc1ccccc1 | i
CC(C)N(C(=O)Cn1c(=O)oc2cc(S(=O)(=O)N3CCCCC3)ccc21)C1CCCCC1 | i
CCCCN1C(=O)c2cc(C(=O)N3CCN(c4ccc(F)cc4)CC3)nn2CC1(C)C(=O)NC1CCCC1 (stereo not drawn) | i
CC1(C(=O)NC2CCCCCC2)Cn2c(nc3ccccc32)C(=O)N1Cc1ccc2c(c1)OCO2 (stereo not drawn) | i
Cc1ccc(Cn2c(=O)c3ccc(C(=O)NCC(C)C)cc3n3c(=O)n(CC(=O)NC(C)C)nc23)cc1 | i
CCc1ccccc1N1C(=O)CSc2c(c3ccccc3n2C)C1C(=O)NCc1ccc(F)cc1 (stereo not drawn) | i
CC(=O)Nc1c2n(c3ccc(F)cc13)CC(C)(C(=O)NC1CCCCCC1)N(CCN(C)C)C2=O (stereo not drawn) | i
CCCn1c(=O)c2ccc(C(=O)NC3CCCC3)cc2n2c(=O)n(Cc3ccccc3F)nc12 | i
CCOC(=O)Cc1c(-c2ccccc2)c2cc(C)ccc2[nH]c1=O | i
CCCn1c(=O)c2ccccc2n2c(SCC(=O)Nc3ccc(F)cc3)nnc12 | i
CCc1ccc(NS(=O)(=O)c2ccc3[nH]c4c(c3c2)CCCC4)cc1 | i
CC(=O)O[C@H]1CC[C@H](C)[C@@]2(C)[C@H](OC(C)=O)c3c(C)coc3C(=O)[C@H]12 | i
Cc1cc(O)cc(Oc2cc(C)c(C(=O)O)c(O)c2)c1 | ?
Cc1ccc(S(=O)(=O)N2CCC3(CC2)SCC(=O)N3Cc2ccco2)cc1 | i
CC(C)CNC(=O)c1ccc2c(=O)n(Cc3ccccc3)c3nn(Cc4ccc(Cl)cc4)c(=O)n3c2c1 | i
O=C(Nc1ccccc1)N1CCN(c2nc(-c3ccccc3)ns2)CC1 | i
Cc1ccc(CNC(=O)CCn2ccc3cc(S(=O)(=O)N4CCCC4)ccc32)o1 | i
O=C(CCc1nnc2n(Cc3ccccc3Cl)c(=O)c3ccccc3n12)N1CCN(c2ccccc2)CC1 | i
O=C(Cn1c2ccccc2c2nc3n(c(=O)c21)CCS3)N1CCCC1 | i
O=C(OC[C@H]1O[C@H](O[C@]2(CO)O[C@H](CO)[C@@H](O)[C@@H]2O)[C@H](O)[C@@H](O)[C@@H]1O)c1ccc(O)cc1 | i
COc1ccc(-c2cc3n(n2)CC(C)(C(=O)NC2CCCCC2)N(Cc2ccc(F)cc2)C3=O)cc1 (stereo not drawn) | i
CC(C)NC(=O)Cn1nc2nc(Nc3ccc(F)cc3)ccn2c1=O | i
COc1ccc(OC)c(S(=O)(=O)N2CC[C@@H]3COCCN(Cc4ccccc4)[C@@H]3C2)c1 | i
COc1ccc(CCC(=O)Nc2nc3ccc(Cl)cc3s2)cc1OC | i
COC1=CC(=O)O[C@@H](CCc2ccccc2)[C@@H]1O | i
O=C(c1cnn2cccnc12)N(Cc1ccncc1)Cc1cccc(OCCc2ccc(F)cc2)c1 | i
CCOC(=O)c1cc2n(n1)CC(C)(C(=O)NC1CCCCCC1)N(CCc1cccs1)C2=O (stereo not drawn) | i
CC(=O)Nc1ccc(NC(=O)C2c3ccccc3C(=O)N(C3CCCC3)C23CCCC3)cc1 (stereo not drawn) | i
CCCn1c(=O)c2ccc(C(=O)NC3CCCC3)cc2n2c(=O)n(CC(=O)N(C)c3ccccc3)nc12 | i
O=C(NC1CCc2n[nH]c(=O)n2CC1)c1ccc(Cn2ccnc2)o1 (stereo not drawn) | i
COc1ccc(-c2c(C)nn3c4c(cnc23)C(=O)CC(c2ccc(C)cc2)C4)cc1 (stereo not drawn) | ?
COc1cc2c(cc1NS(=O)(=O)c1ccc(Br)cc1C)n(C)c(=O)n2C | ?
CN1C(=O)c2cc(C(=O)NC3CCCCCC3)nn2CC1(C)C(=O)NC1CCCC1 (stereo not drawn) | i
Cc1c(C(=O)N[C@@H]2COCC[C@H]2Oc2ccc(C(N)=O)cc2)cnn1C | i
c1nc(N2CCOCC2)c2c3c(sc2n1)CN(CC1CCCCC1)CC3 | ?
CCCCN1C(=O)c2cc(C(=O)N3CCN(CCC)CC3)nn2CC1(C)C(=O)NC1CCCC1 (stereo not drawn) | i
CN1C(=O)c2cc(C(=O)NCc3ccccn3)nn2CC1(C)C(=O)NC1CCCCCC1 (stereo not drawn) | i
O=S(=O)(NCCc1nc2ccccc2[nH]1)c1ccccc1 | i
CC1CCCC(NC(=O)C2(C)Cn3c(cc4sccc43)C(=O)N2Cc2cccc(Cl)c2)C1C (stereo not drawn) | i
CC1(C)CC[C@]2(C(=O)O[C@@H]3O[C@H](CO)[C@@H](O)[C@H](O)[C@H]3O)CC[C@]3(C)C(=CCC4[C@@]5(C)CC[C@H](O[C@@H]6O[C@H](C(=O)O)[C@@H](O[C@@H]7O[C@H](CO)[C@@H](O)[C@H](O)[C@H]7O)[C@H](O)[C@H]6O[C@@H]6O[C@H](CO)[C@@H](O)[C@H](O)[C@H]6O)C(C)(C)C5CC[C@]43C)C2C1 (stereo partly drawn) | i
CCCc1nc(CC)n2cc[nH]c(=O)c12 | i
CC(C)Cn1c(=O)c2ccccc2n2c(CCC(=O)NC(C)c3ccccc3)nnc12 (stereo not drawn) | i
CC(C)C1=CC2=CCC3[C@](C)(CCC[C@@]3(C)C(=O)O)C2CC1O (stereo partly drawn) | i
CC1(C)OC(=O)CC(O)C2(C)C1CC(=O)C1(C)C2C(O)CC2(C)C(c3ccoc3)OC(=O)C3OC321 (stereo not drawn) | i
CCCN1C(=O)c2nc3ccccc3n2CC1(C)C(=O)NC1CCCC(C)C1C (stereo not drawn) | i

(cont.)
compound | Methyltransferases
CC1(C(=O)NC2CCCCCCC2)Cn2c(cc3sccc32)C(=O)N1Cc1ccco1 (stereo not drawn) | i
Cc1ccc(NC(=O)CSc2nnc3n(CC(C)C)c(=O)c4cc(F)ccc4n23)c(C)c1 | i
Nc1ccn(C2CO[C@H](CO)O2)c(=O)n1 (stereo partly drawn) | i
CCC(CC)C(=O)N1CC[C@@H]2COCCN(Cc3cccnc3)[C@@H]2C1 | i
CC(C)NC(=O)NC[C@H]1OC[C@@H](NCc2cnc[nH]2)[C@@H]1O | i
COc1cc(O)cc(/C=C/c2cccc(O)c2)c1 | i
CCC[C@H](N)C(=O)N1CCC2(CCC(=O)N(Cc3cnc(C)cn3)C2)CC1 | i
COc1ccc(F)cc1S(=O)(=O)N1C[C@@H](C(N)=O)[C@H](C2CCN(C)CC2)C1 | i
CN(C(=O)Cc1c[nH]c2ccccc12)C1CCc2nn(C)c(=O)n2CC1 (stereo not drawn) | i
N#Cc1cccc(CN2CCC(N(Cc3cccnc3)C(=O)Nc3ccccc3-c3ccccc3)CC2)c1 | ?
CCCCNC(=O)c1ncn2c1C(=O)N(CCC)C(C)(C(=O)NCc1ccc(C)cc1)C2 (stereo not drawn) | i
CCOC(=O)c1cc2n(n1)CC(C)(C(=O)NCc1ccccc1)N(Cc1ccccc1OC)C2=O (stereo not drawn) | i
CN1C[C@H](NC(=O)c2cnccn2)CCC[C@@H](C(=O)N(C)Cc2cccnc2)CC1=O | i
CCCCCCCCCCCCCCCC(=O)OC(CC(=O)O)C[N+](C)(C)C (stereo not drawn) | i
CC(=O)N1CCN(C(=O)Cc2ccc(Nc3ncc(F)c(Nc4ccc(C(=O)Nc5ccccc5Cl)cc4)n3)cc2)CC1 | i
COC1CC(O[C@H]2CC[C@@]3(C)C(CCC4C3[C@H](OC(C)=O)[C@@H](OC(=O)/C=C/c3ccccc3)[C@]3(C)C(C(C)=O)CC[C@]43O)C2)OC(C)C1OC1CC(OC)C(OC2CC(OC)C(OC3OC(C)C(OC4OC(CO)C(O)C(O)C4O)C(OC)C3O)C(C)O2)C(C)O1 (stereo partly drawn) | i
CCC(C)NC(=O)c1ccc2c(=O)n(CC(C)C)c3nn(Cc4ccc(F)cc4Cl)c(=O)n3c2c1 (stereo not drawn) | i
C=C(C(=O)O)[C@@H]1CC[C@@]2(C)CC[C@H](O)[C@@]2(C(C)=O)C1 | +
CC1(C(=O)NC2CCCCC2)Cn2c(ccc2-c2ccco2)C(=O)N1C1CCCc2ccccc21 (stereo not drawn) | i
COc1ccc(O)cc1CN1CCC(Cc2ccc(C(=O)O)cc2)C1 (stereo not drawn) | i
CCC(C)NC(=O)Cn1nc2n(C(C)C)c(=O)c3ccc(C(=O)NC(C)C)cc3n2c1=O (stereo not drawn) | i
COC(=O)c1ncn2c1C(=O)N(c1ccc(OC)c(Cl)c1)C(C)(C(=O)NCc1ccccc1)C2 (stereo not drawn) | i

Compound activity from PubChem.
